Sfp PPTase inh: qHTS Assay for Inhibitors of Bacillus subtilis Sfp phosphopantetheinyl transferase (PPTase) | 4'-phosphopantetheinyl transferase ffp (Bacillus subtilis), Q9F4F7 | Biochemical Sfp PPTase activity, qHTS | Potency, µM, for the others: max response, negative = inhibition, hits mostly inhibitors | hit rate 3.5% among 310,000 | AID 1490, 2009; active = well fitted inhibition curve with a large enough effect; inconclusive = small, poorly fitted or top-dose-only effect, or another doubt; inactive = no such curve, though single readings can be large or run the other way;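 note: the enzyme is Sfp with the accession as filed and its product quenches rhodamine fluorescence; potency is the fitted concentration of half-maximal effect; 0% = enzyme reaction without inhibitor and -100% = no enzyme wells; top concentration of the series not given in the record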
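Fluorescence-quenching assay: 15 nM Sfp-PPTase preincubated 15 min at room temperature with compound, then 5 uM rhodamine-CoA and 12.5 uM BHQ-2-labelled YbbR peptide added. Fluorescence (ex 525/em 598 nm) read at start and after 30 min; difference gives rate.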
Menin-MLL FL inh: qHTS Assay for Inhibitors Targeting the Menin-MLL Interaction in MLL Related Leukemias: Competition With Fluorescein Labeled MLL-derived Peptide. Fluorescence polarization, fluorescein-MLL peptide displacement from menin. FP activity change, % at 61.4 µM. 290,000 tested, under 10 active. AID 1766, 2009; inconclusive = falling polarisation curve, or a change in total fluorescence; inactive = total fluorescence flat and polarisation flat or rising; no compound was filed as active; the % refers to the polarisation; negative = inhibition;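 note: % of control where 0% means no effect; inhibitors lower the polarisation; unlabelled MLL peptide was the positive control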
D2 agonist: Beta-Arrestin HTS for Positive Allosteric Modulators of the Human D2 Dopamine Receptor: Agonists; D(2) dopamine receptor (Homo sapiens), P14416; DiscoveRx PathHunter D2 beta-arrestin, luminescence, 90 min; 100% = 57 uM dopamine signal; activation, % (test concentration not listed); hit rate 0.084% among 360,000; in the data active = activation above about 40%; inconclusive = about 15% to 40%; inactive = below about 15%; note: compound concentration not given in the record; the text of the record calls up to 30% inactive
Target sequence (P14416 whole entry, looked up): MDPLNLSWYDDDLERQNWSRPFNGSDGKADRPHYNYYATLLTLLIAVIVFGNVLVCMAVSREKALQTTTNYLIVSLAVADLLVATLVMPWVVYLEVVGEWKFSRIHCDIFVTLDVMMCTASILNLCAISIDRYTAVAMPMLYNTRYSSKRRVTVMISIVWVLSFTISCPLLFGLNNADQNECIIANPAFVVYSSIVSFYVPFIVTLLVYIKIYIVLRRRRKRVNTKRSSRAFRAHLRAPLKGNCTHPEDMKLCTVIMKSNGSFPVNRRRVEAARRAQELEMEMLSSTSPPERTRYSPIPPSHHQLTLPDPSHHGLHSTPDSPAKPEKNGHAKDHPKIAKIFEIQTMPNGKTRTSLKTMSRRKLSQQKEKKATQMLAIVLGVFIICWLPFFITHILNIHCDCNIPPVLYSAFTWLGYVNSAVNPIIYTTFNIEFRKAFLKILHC
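DiscoveRx PathHunter D2 beta-arrestin cells (2,100/well) attached overnight, then compound-stimulated 90 min at 37 C in HBSS/10 mM HEPES/0.1% Tween-20 buffer; beta-galactosidase complementation read by luminescence after 1 h at ambient temperature. Dopamine 57 uM final (EC100) as control.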
ClpP mod: qHTS Assay for Activators of ClpP. purified B. subtilis ClpP, FRET peptide cleavage, 20 min. Potency, µM (titrated, usually from 57.5 µM), inactives show at the top dose activity change, negative = active. hit rate 1.9% among 340,000. AID 651965, 2013; active = well fitted falling curve with a large enough effect; inconclusive = small, poorly fitted or top-dose-only effect; inactive = no such curve, though single readings can be large or run the other way; note: potency is the fitted concentration of half-maximal effect; the source files actives as falling curves though it sought activators and does not explain the sign; nearly all actives have a fitted effect of over 65% in size; many hits overshoot -100%
Target sequence (P80244 whole entry, looked up): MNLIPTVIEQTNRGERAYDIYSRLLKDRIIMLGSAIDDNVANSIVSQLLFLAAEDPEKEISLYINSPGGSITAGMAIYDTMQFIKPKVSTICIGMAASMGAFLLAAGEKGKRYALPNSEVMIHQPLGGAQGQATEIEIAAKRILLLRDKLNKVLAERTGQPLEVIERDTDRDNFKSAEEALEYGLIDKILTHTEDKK
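Buffer: 100 mM Tris/HCl pH8, 100 mM KCl, 0.05% low protease BSA, 2.5% glycerol, 0.01% Tween-20. ClpP 10 microg/mL final; 20 min RT; delta FRET normalized to ADEP and DMSO controls.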
gsp ag: qHTS for Agonist of gsp, the Etiologic Mutation Responsible for Fibrous Dysplasia/McCune-Albright Syndrome: qHTS | gsp mutant cells, cAMP HTRF, 30 min; control for the full effect not named in the record | Potency, µM (top dose mostly 76.9 µM), inactives show at the highest dose activation (cAMP increase), usual class: activators | hit rate 0.13% among 340,000 | AID 624287, 2012; active = well fitted activation curve with a large enough effect; inconclusive = small, poorly fitted or top-dose-only effect, or another doubt; inactive = no such curve, though single readings can be large or run the other way; cell line not stated here;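 note: phosphodiesterase inhibitor Ro 20-1724 added with compounds to block cAMP breakdown; potency is the fitted concentration of half-maximal effect; nearly all actives have a fitted effect of over 60% in size; about a fifth of the inactives were tested at one dose only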
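Cells stably selected in G418 were plated at 2000/well, grown 16-24 hr, then given compounds in DMSO with the PDE inhibitor […] (300 uM solution added) for 30 min at 37C; cAMP was read by HTRF.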
gsp antag: qHTS for Antagonists of gsp, the Etiologic Mutation Responsible for Fibrous Dysplasia/McCune-Albright Syndrome: qHTS. gsp-mutant cells, cAMP HTRF, 30 min; control for the full effect not named in the record. Potency, µM (titrated, usually from 76.9 µM), inactives show at the highest dose activity change, negative = inhibition, most hits filed as inhibitors. hit rate 0.4% among 340,000. AID 624288, 2012; active = falling curve of any shape with a large fitted effect; inconclusive = falling curve, mostly with a smaller effect; inactive = flat or rising curve; cell line not stated here;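 note: intracellular cAMP measured with PDE inhibitor Ro 20-1724 present during compound exposure; potency is the fitted concentration of half-maximal effect; % is set by controls: 0 for no effect and ±100 for the full control effect; nearly all actives have a fitted effect of over 65% in size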
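Measurement of cellular cAMP by homogeneous time-resolved fluorescence following a 30 min compound exposure at 37C. The PDE inhibitor […] was present throughout; the assay buffer was DPBS with 0.05% BSA and 0.005% Tween 20.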
PINK1 modulator: A Quantitative High throughput Screen to Identify Chemical Modulators of PINK1 Expression; PINK1 immunofluorescence, high-content cytometry, 24 h; Potency, µM (series often up to 76.6 µM), inactives show at the top dose activation (PINK1 increase), hits mostly activators; hit rate 0.2% among 410,000; active = well fitted activation curve with a large enough effect; inconclusive = small, poorly fitted or top-dose-only effect; inactive = flat fitted curve, though single readings scatter; cell line not stated here;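 note: potency is the fitted concentration of half-maximal effect; % of control where 0% means no effect; nearly all actives have a fitted effect of over 65% in size; a mitochondrial uncoupler was the plate control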
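Readout is PINK1 immunofluorescence, quantified alongside mitochondrial, cell and nuclear markers by laser-scanning microplate cytometry. Cells from a stable line were exposed to compound titrations (5 concentrations) for 24 hours, with CCCP controls.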
* hit, by the source's call; [ ] = remark or other dose.

`COc1cccc(C2Cc3ccccc3C(=O)O2)c1` (stereo unspecified) gave Sfp PPTase inh 9.5%, Menin-MLL FL inh 2.9, D2 agonist -2.6, ClpP mod 2.0%, gsp ag -0.3%[15.4 µM], gsp antag 12.1% and PINK1 modulator -1.3%.
Screening Cc1ccc(C(=O)N[C@H](C(=O)OCC(=O)NC2CCS(=O)(=O)C2)C(C)C)cc1 (stereo partly specified) returned Sfp PPTase inh 28.9%, Menin-MLL FL inh 7.2, D2 agonist -2.8, ClpP mod -0.2%, gsp ag 6.6%, gsp antag 7.5% and PINK1 modulator -0.2%.
For NC(=O)NC(CC(=O)OCC(=O)Nc1nnc(-c2ccccc2)o1)c1ccc(Cl)cc1 (stereo unspecified) the results were D2 agonist -2.8, ClpP mod -8.7%, gsp ag 3.2% and PINK1 modulator 0.2%.
For CC1CCN(S(=O)(=O)c2ccc3[nH]c(=O)cc(C(=O)O)c3c2)CC1 the results were Sfp PPTase inh 16.5%, Menin-MLL FL inh 1.8, D2 agonist -3.7, ClpP mod -20.9%, gsp ag -27.0%, gsp antag -1.9% and PINK1 modulator 2.9%[38.3 µM].
For CCOC(=O)C(=CNc1nc(-c2ccccc2)c(C(=O)Nc2ccc(-c3ccccc3)cc2)s1)C(=O)OCC the results were Sfp PPTase inh 14.6%, D2 agonist 2.9, ClpP mod 12.6µM*, gsp ag 27.7%, gsp antag -4.5% and PINK1 modulator 11.5%.
`CC1(C)CC(=O)c2cnc(NC(=O)CSC(=S)N3CCCCC3)nc2C1` gave Sfp PPTase inh 7.8%, Menin-MLL FL inh 5.1, D2 agonist -4.1, ClpP mod -2.0%, gsp ag 0.2%[15.4 µM], gsp antag 3.6% and PINK1 modulator 5.3%.
Screening COC(=O)c1c(NC(=O)c2cccnc2)sc(C(=O)N(C)C)c1C returned Sfp PPTase inh -25.8%, Menin-MLL FL inh 6.2, D2 agonist -1.9, ClpP mod 0.9%, gsp ag -13.7%, gsp antag 9.3% and PINK1 modulator 1.9%.
For O=C(O)C=Cc1c[nH]c2nccnc12 the results were D2 agonist -4.4, ClpP mod -1.9%, gsp ag 1.2% and PINK1 modulator -0.9%.
`COC(=O)c1ccc(NC(=S)NN2CCCCC2c2cccnc2)cc1` (stereo unspecified) gave Sfp PPTase inh -2.3%, Menin-MLL FL inh 0.7, D2 agonist -1.9, gsp ag 25.8%, gsp antag -11.0% and PINK1 modulator 0.2%.
CCOC(=O)c1ccc(S(=O)(=O)N2CCN(C(=O)c3ccccn3)CC2)cc1 was read as D2 agonist 1.3, ClpP mod -0.2%, gsp ag 1.6%, gsp antag 0.6% and PINK1 modulator 0.9%.
For Cc1csc(NC(=O)CSc2nnc(-c3cc(C)on3)o2)n1 the results were Sfp PPTase inh -14.3%, Menin-MLL FL inh 5.3, D2 agonist -0.8, ClpP mod 1.6%, gsp ag 11.0%, gsp antag 1.3% and PINK1 modulator -0.2%.
`O=C(O)/C=C/C(=O)Nc1ccccc1SC(F)(F)C(F)(F)C(F)(F)F` gave Sfp PPTase inh inconclusive, Menin-MLL FL inh 1.8, D2 agonist -1.4, gsp ag 23.3%[15.4 µM] and PINK1 modulator 0.1%.
Screening COc1ccc(Cn2c(=O)[nH]c3cc(C(=O)NCCCN4CCCCCC4)ccc3c2=O)cc1 returned Sfp PPTase inh 6.1%, Menin-MLL FL inh -4.5, D2 agonist 2.7, gsp ag -55.0%[inhibitor], gsp antag 5.1% and PINK1 modulator 7.2%.
COCCN1CCN(C(=O)C2CCC(=O)N(Cc3ccccc3OC)C2)CC1 (stereo unspecified) was read as Sfp PPTase inh 14.9%, D2 agonist -3.9, ClpP mod 1.4%, gsp ag 4.2%[15.4 µM], gsp antag -3.2% and PINK1 modulator -0.4%.
COc1ccc(CN(C)CCCn2cnc3c(SC)ncnc32)cc1OC was read as D2 agonist 0.5, ClpP mod -2.1%, gsp ag inconclusive and PINK1 modulator 1.2%.
For O=C1C(=O)N(CCN2CCOCC2)C(c2ccc([N+](=O)[O-])cc2)/C1=C(/O)c1ccc2c(c1)OCO2 (stereo unspecified) the results were Sfp PPTase inh -9.7%, D2 agonist 0.8, ClpP mod -5.1%, gsp ag -1.7%[15.4 µM], gsp antag 11.8% and PINK1 modulator -0.7%.
For COc1ccc(OCCn2ccnc2)cc1 the results were Sfp PPTase inh inconclusive, Menin-MLL FL inh 1.1, D2 agonist -2.3, ClpP mod 0.7%, gsp ag 25.7%, gsp antag -1.4% and PINK1 modulator 1.8%.
For COc1ccc(CNC(=O)c2coc(=O)c3ccccc23)c(OC)c1 the results were Sfp PPTase inh 12.5%, Menin-MLL FL inh -4.1, D2 agonist 0.5, ClpP mod inconclusive, gsp ag 6.0%[15.4 µM], gsp antag -8.6% and PINK1 modulator -1.6%.
For CC(Sc1nc2ccccc2n1C)C(=O)Nc1ccc(N2CCOCC2)cc1 (stereo unspecified) the results were Sfp PPTase inh 2.6%, Menin-MLL FL inh -3.4, D2 agonist 2.0, ClpP mod -2.0%, gsp ag -8.3%, gsp antag 10.9% and PINK1 modulator -0.3%.
Screening O=C(CCn1nc(-c2ccccc2)c2ccccc2c1=O)NN1CCOCC1 returned Sfp PPTase inh 16.6%, Menin-MLL FL inh 1.2, D2 agonist -4.5, gsp ag 12.0%[15.4 µM], gsp antag -0.1% and PINK1 modulator 0.8%.
Screening COc1cc(NC(=O)C2=C(C)OCCS2)c(Cl)cc1C(=O)NCCN(C)C returned Sfp PPTase inh 8.1%, Menin-MLL FL inh 5.0, D2 agonist -3.9, gsp ag 13.7%[15.4 µM], gsp antag 5.6% and PINK1 modulator -2.4%.
Screening CC(C)CN1CCCC2(CCN(C(=O)c3cccc(F)c3)CC2)C1 returned Sfp PPTase inh 16.1%, Menin-MLL FL inh 8.8 and PINK1 modulator 0.6%.
`CN1C(=O)C(O)(C2OC(C)(C)CCC2=O)c2ccccc21` (stereo unspecified) gave Sfp PPTase inh -4.6%, Menin-MLL FL inh 1.9, D2 agonist -1.6, ClpP mod -0.8%, gsp ag 25.2%, gsp antag 11.5% and PINK1 modulator 0.0%.
For C#CCN(C)CC/C=C1\c2ccccc2CSc2ccccc21 the results were Sfp PPTase inh -13.0%, Menin-MLL FL inh 2.0, D2 agonist -5.1, ClpP mod -1.0%, gsp ag 22.5%, gsp antag -5.1% and PINK1 modulator 2.7%.
Cc1nn(C)c(C(=O)Nc2ccc(Br)cc2F)c1Br was read as Sfp PPTase inh 1.1%, D2 agonist -6.1, ClpP mod 1.6%, gsp ag -6.0%, gsp antag 3.2% and PINK1 modulator 3.8%.
For Cc1ccc(-n2nnnc2-c2cnoc2-c2cccc(F)c2)cc1 the results were Sfp PPTase inh 11.6%, Menin-MLL FL inh 1.1, D2 agonist 0.6, ClpP mod -3.7%, gsp ag -63.8%[inhibitor], gsp antag -9.6% and PINK1 modulator 7.3%.
`Cc1oc(-c2cccs2)nc1CNC[C@H]1O[C@@H](n2cnc(C(N)=O)n2)[C@H](O)[C@@H]1O` gave D2 agonist -1.1, ClpP mod -29.6%, gsp antag 3.8% and PINK1 modulator -1.1%.
`COc1ccccc1NC(=O)Nc1nc(CC(=O)N2CCN(c3ccccc3F)CC2)cs1` gave D2 agonist 0.2, gsp ag -29.0%[15.4 µM], gsp antag -13.7% and PINK1 modulator -1.1%.
For CCOc1cc(NC(=O)CCl)c(OCC)cc1NC(C)=O the results were Sfp PPTase inh 15.3%, Menin-MLL FL inh -4.3, D2 agonist 4.0, gsp ag inconclusive, gsp antag 5.1% and PINK1 modulator 5.5%.
`CC(C)Oc1cccc(C(=O)C2CCCN(C(=O)c3ccsc3)C2)c1` (stereo unspecified) gave Sfp PPTase inh 9.7%, Menin-MLL FL inh 2.2, D2 agonist -2.6, ClpP mod -1.3%, gsp ag 14.5%, gsp antag 5.9% and PINK1 modulator 0.3%.
CC(C)n1cnc2cc(NCc3nc4ccccc4n3C)ccc21 was read as Sfp PPTase inh -3.0%, Menin-MLL FL inh -2.5, D2 agonist -5.6, ClpP mod -12.6%, gsp ag 2.3%[15.4 µM], gsp antag 2.1% and PINK1 modulator 1.0%.
For O=C(CCCN1C(=O)CCC1=O)Nc1ccc(Cl)c(C(F)(F)F)c1 the results were Sfp PPTase inh -19.0%, Menin-MLL FL inh -0.2, D2 agonist -0.9, ClpP mod 1.3%, gsp ag 4.2%, gsp antag -5.7% and PINK1 modulator -0.3%.
`CCCCN(Cc1cc2cccc(C)c2[nH]c1=O)S(C)(=O)=O` gave Sfp PPTase inh 5.3%, Menin-MLL FL inh 0.0, D2 agonist -4.2, ClpP mod -22.6%, gsp ag 7.8%, gsp antag 10.2% and PINK1 modulator 1.6%.
`O=C(NC1CCCCC1)C(Cc1ccccc1)NS(=O)(=O)c1cccs1` (stereo unspecified) gave Sfp PPTase inh 6.8%, Menin-MLL FL inh 1.0, D2 agonist 0.2, ClpP mod 0.9%, gsp ag -16.2%, gsp antag -2.4% and PINK1 modulator 1.5%[38.3 µM].
Screening CCCc1cc(C(=O)OC)c(NC(=O)CCCC(=O)O)s1 returned Sfp PPTase inh 11.7%, Menin-MLL FL inh 2.8, D2 agonist -1.4, gsp ag -39.2%[inhibitor], gsp antag inconclusive and PINK1 modulator 1.8%.
Screening O=C(Nc1nnc(CC2=CCCCC2)s1)Nc1ccccc1F returned Sfp PPTase inh 10.0%, Menin-MLL FL inh 3.7, D2 agonist 5.6, gsp ag -15.9%[15.4 µM], gsp antag 7.3% and PINK1 modulator 8.7%.
`Cc1ccc(Nc2nc(-c3ccc(S(=O)(=O)N4CCCC4)cc3)cs2)cc1C` gave Sfp PPTase inh -19.0%, Menin-MLL FL inh -0.4, D2 agonist 1.8, ClpP mod inconclusive, gsp ag inconclusive, gsp antag -13.5% and PINK1 modulator 4.5%[38.3 µM].

Compound activity as filed in PubChem.
